VCAM-1 up imaging: enhancers of VCAM-1 display on endothelial cells, imaging, high-content imaging, pooled HUVEC, TNFa stimulus (AID 457); calls only; Pooled HUVEC, TNFa-induced VCAM-1 immunofluorescence imaging; hits of this screen are not shown here; 10,000 compounds, 0.2% hits;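 active = a top-ranked rise in VCAM-1 staining upheld on image or statistical review; inactive = the rest, including candidates rejected on review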;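 note: compounds tested at 5 µM in the well; cells exposed to compound for 24 hours before fixing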
FPR ligand: human FPR ligands by binding competition, primary screen, cell-based, FPRL1 counter-screen, flow cytometry; fMet-Leu-Phe receptor (Homo sapiens), P21462; FPR-expressing cells, fluorescent ligand binding; inhibition, %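 (tested at 6.7 µM)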; 24,000 compounds, 0.74% hits; AID 440, 2006;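 note: 0% = buffer wells and 100% = receptor blocker peptide wells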
Target sequence (P21462 whole entry, looked up): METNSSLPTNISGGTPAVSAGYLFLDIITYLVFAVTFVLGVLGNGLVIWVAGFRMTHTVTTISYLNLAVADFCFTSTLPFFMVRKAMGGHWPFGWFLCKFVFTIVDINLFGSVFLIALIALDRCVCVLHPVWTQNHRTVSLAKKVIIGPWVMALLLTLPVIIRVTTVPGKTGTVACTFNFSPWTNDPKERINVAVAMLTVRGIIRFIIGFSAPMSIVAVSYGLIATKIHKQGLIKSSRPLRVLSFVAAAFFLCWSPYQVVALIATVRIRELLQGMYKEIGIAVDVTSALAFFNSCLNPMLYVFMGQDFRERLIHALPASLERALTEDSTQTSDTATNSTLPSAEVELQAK
FPRL1 binder: human FPRL1 ligands by binding competition, primary screen, cell-based, FPR counter-screen, flow cytometry | N-formyl peptide receptor 2 (Homo sapiens), P25090 | FPRL1-expressing cells, fluorescent ligand binding inhibition | inhibition, %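 (tested at 6.7 µM)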 | 24,000 compounds, 0.3% hits;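 note: 0% = buffer alone and 100% = receptor blocker peptide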
Target sequence (P25090 whole entry, looked up): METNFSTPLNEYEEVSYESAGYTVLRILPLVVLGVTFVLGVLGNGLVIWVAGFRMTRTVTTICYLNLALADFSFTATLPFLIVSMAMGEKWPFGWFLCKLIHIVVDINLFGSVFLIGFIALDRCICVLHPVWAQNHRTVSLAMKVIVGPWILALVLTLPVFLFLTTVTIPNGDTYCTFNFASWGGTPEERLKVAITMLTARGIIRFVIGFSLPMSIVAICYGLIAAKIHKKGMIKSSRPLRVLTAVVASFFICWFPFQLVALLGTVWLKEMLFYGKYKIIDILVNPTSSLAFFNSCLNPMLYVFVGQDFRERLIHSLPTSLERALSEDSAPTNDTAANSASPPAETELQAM
VCAM-1 down: inhibitors of TNFa-induced VCAM-1 surface display, cell-based, plate reader, pooled HUVEC, TNFa stimulus (AID 454); HUVEC TNFa-induced VCAM-1 surface immunofluorescence, plate reader; numbers were filed only for top-ranked candidate wells; inhibition, % at 5 µM; 10,000 compounds, 0.2% hits;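 active = compound among top-ranked inhibitors of TNF-induced VCAM-1 adhesion protein staining, with the hit upheld by image or statistical review; inactive = the rest, including hits rejected on review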;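 note: 0% = TNFa with vehicle and 100% = cells without TNFa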
VCAM-1 down imaging: inhibitors of TNFa-induced VCAM-1 surface display, imaging, high-content imaging, pooled HUVEC, TNFa stimulus (AID 456). inhibition, % at 5 µM, or IC50 in µM where a hit was titrated. HUVEC TNFa-induced VCAM-1 surface expression, immunofluorescence imaging; numbers were filed only for top-ranked candidate wells. 10,000 compounds, 0.2% hits;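 active = top tenth filtered wells with inhibition above zero that passed visual or statistical confirmation; inactive = the rest, including hits rejected on review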;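 note: 0% = stimulated vehicle wells and 100% = unstimulated cells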
Active calls of the source: *; i = inactive; . = not tested or not shown.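 Rule for the calls, unless noted: active = mean above 30%; inconclusive = self-fluorescent; inactive = the rest.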 The list is partial; rates above refer to the full screens.

SMILES	VCAM-1 up imaging	FPR ligand	FPRL1 binder	VCAM-1 down	VCAM-1 down imaging
CCCSc1nnc(Cn2c(=O)sc3ccccc32)n1-c1ccccc1	.	3.0	2.3	.	.
CCCCN1CC(COc2ccccc2)OC1=O (stereo unspecified)	.	-4.8	1.1	.	.
CCc1nc2sc3c(c2c(=O)o1)CCCC3	i	3.0	2.8	i	i
COCCN1C(=O)C(=O)/C(=C(/O)c2ccc(OC(C)C)cc2)C1c1cccnc1 (stereo unspecified)	i	11.7	-3.3	i	i
CCOC(=O)N1CCC(NC(=O)C2CCCCN2S(=O)(=O)c2ccc(F)cc2)CC1 (stereo unspecified)	.	1.3	8.1	.	.
Cc1nnc(SCc2cccc(Oc3ccccc3)c2)n1N	i	-4.5	-3.0	i	i
Cc1ccc(NC(=O)CSc2nnc(-c3ccncc3)n2C)cc1C	i	-8.6	-0.5	i	i
COc1ccccc1C1CC(=O)NC(C)=C1C(=O)OCC1CCCO1 (stereo unspecified)	.	-1.0	8.3	.	.
COc1ccc(NC(=O)CSc2nnc(CNC(=O)COc3ccc(Cl)cc3)o2)c(OC)c1	.	-3.8	4.9	.	.
CC(=O)c1ccc(OCC(O)CN2CCN(c3ccccn3)CC2)cc1 (stereo unspecified)	.	-8.7	-4.8	.	.
c1ccc2c(-c3nc(-c4ccncc4)no3)cccc2c1	i	-1.6	-8.8	i	i
O=C(CCCc1c[nH]c2ccccc12)N1CCN(c2ccc(N3CCOCC3)nn2)CC1	.	-3.8	-7.2	.	.
COc1ccccc1N1CCN(C(=O)C(NS(=O)(=O)c2cccs2)c2ccccc2)CC1 (stereo unspecified)	.	1.5	-4.9	.	.
CC(=O)Nc1cccc(NC(=O)c2oc3ccccc3c2C)c1	i	9.4	9.5	i	i
CCN1CCN(Cc2ccc(NC(=O)Nc3ccccc3Cl)cc2)CC1	.	-10.0	3.6	.	.
COc1ccccc1N1C(=O)CC(Sc2nc(C)cc(C)n2)C1=O (stereo unspecified)	i	-1.0	0.5	i	i
O=C(O)C1CCCCC1C(=O)Nc1ccc(Cl)cc1 (stereo unspecified)	.	-10.1	-0.4	.	.
CCn1c(C(=O)Nc2ccsc2C(=O)OC)cc2sc(Cl)cc21	.	-4.9	-7.9	.	.
CCOC(=O)c1c(C)c(C(=O)NC2CCCCCC2)c(C)n1C	.	-1.0	6.6	.	.
COc1ccc(CC(=O)Nc2ccc(OC)c(NC(=O)c3ccco3)c2)cc1	i	-0.2	1.4	i	i
COC(=O)c1cn(NC(=O)C2CCCCC2)c(=O)c2ccccc12	.	7.1	-3.2	.	.
N#Cc1nc(COc2ccccc2Cl)oc1N1CCCCCC1	i	-1.1	3.2	i	i
CC1NC(=O)NC1CCCCCC(=O)NCCc1ccccc1 (stereo unspecified)	i	-2.9	-11.1	i	i
CC1CCN(CCCNC(=O)c2coc3nc4ccccc4nc23)CC1	i	-1.7	-4.2	i	i
O=C(Nc1nc(-c2ccncc2)cs1)C1COc2ccccc2O1 (stereo unspecified)	i	-3.5	16.0	i	i
Cc1cc2ncc(C(=O)Nc3ccccc3)c(C)n2n1	i	-4.1	-1.3	i	i
COc1cccc(NC(=O)C2CCCN2C(=O)Nc2cccc(F)c2)c1 (stereo unspecified)	i	1.8	1.2	i	i
COc1ccccc1N1CCN(c2cc(C)nc3nc(C)nn23)CC1	.	1.9	6.6	.	.
CCOC(=O)c1oc2ccc3c(c2c1C)C(=O)CC1(CCN(C(=O)OCC)CC1)O3	.	-3.1	-2.1	.	.
CCN1C(=O)C(O)(CC(=O)c2ccc3c(c2)OCCO3)c2ccccc21 (stereo unspecified)	.	-1.0	1.0	.	.
CCCC(=O)Nc1cnc(NC(=O)c2cccc(F)c2)cc1C	i	-2.6	4.5	i	i
COCCn1nnnc1C(c1ccccc1OC)N1CCc2ccccc2C1 (stereo unspecified)	i	-3.2	0.0	i	i
Cc1ccc(C)c(Cn2cnc3c(nnn3-c3ccc(F)cc3)c2=O)c1	.	-0.2	-0.7	.	.
Cc1ccccc1-n1nc2c(c1NC(=O)c1ccc(Br)o1)CSC2	.	-8.4	-6.3	.	.
CCOC(=O)C1CCN(c2nc3ccccc3nc2C(C#N)C(=O)OC(C)C)CC1 (stereo unspecified)	i	-6.8	-0.1	i	i
O=C(NCc1cccs1)C1CCC(=O)N1C1CCCCC1 (stereo unspecified)	.	-1.1	-2.4	.	.
O=C(Nc1ccc(F)cc1F)c1cc(-c2ccco2)on1	.	-1.9	-0.3	.	.
CC(NC(=O)c1cnc2n(c1=O)CCS2)c1ccccc1 (stereo unspecified)	.	-3.3	-0.4	.	.
COc1cc(C2c3c(oc4c(C)cc(C)cc4c3=O)C(=O)N2Cc2cccnc2)cc(OC)c1OC (stereo unspecified)	i	-1.9	3.6	i	i
O=C(CN(c1ccc(F)cc1)S(=O)(=O)c1ccc2c(c1)OCCO2)NCC1CCCO1 (stereo unspecified)	i	6.4	2.9	i	i

Structures from the list above with fluorine, in the order listed:
SMILES	VCAM-1 up imaging	FPR ligand	FPRL1 binder	VCAM-1 down	VCAM-1 down imaging
CCOC(=O)N1CCC(NC(=O)C2CCCCN2S(=O)(=O)c2ccc(F)cc2)CC1 (stereo unspecified)	.	1.3	8.1	.	.
COc1cccc(NC(=O)C2CCCN2C(=O)Nc2cccc(F)c2)c1 (stereo unspecified)	i	1.8	1.2	i	i
CCCC(=O)Nc1cnc(NC(=O)c2cccc(F)c2)cc1C	i	-2.6	4.5	i	i
Cc1ccc(C)c(Cn2cnc3c(nnn3-c3ccc(F)cc3)c2=O)c1	.	-0.2	-0.7	.	.
O=C(Nc1ccc(F)cc1F)c1cc(-c2ccco2)on1	.	-1.9	-0.3	.	.
O=C(CN(c1ccc(F)cc1)S(=O)(=O)c1ccc2c(c1)OCCO2)NCC1CCCO1 (stereo unspecified)	i	6.4	2.9	i	i

New compounds follow:
SMILES	VCAM-1 up imaging	FPR ligand	FPRL1 binder	VCAM-1 down	VCAM-1 down imaging
CCOC(=O)N1CCN(Cc2nc3c(c(=O)n(C)c(=O)n3C)n2Cc2ccc(F)cc2)CC1	i	8.6	2.8	i	i
Cc1cc(Nc2cc(C)on2)n2ncnc2n1	.	-4.0	15.9	.	.
COCCNc1oc(-c2ccc(C)cc2)nc1C#N	i	3.3	-1.3	i	i
Cc1ccc(N(C(C)C(=O)O)S(=O)(=O)c2cccnc2)cc1 (stereo unspecified)	.	-8.8	-5.3	.	.
O=C(NCc1ccc2c(c1)OCO2)C1CCN(S(=O)(=O)c2ccc(Br)s2)CC1	.	-1.5	9.1	.	.
O=C(NC1CCCC1)C(c1cccs1)N(C(=O)c1ccno1)c1ccccc1 (stereo unspecified)	i	-1.4	-2.1	i	i
Cc1cccc(-c2nsc(SCC(=O)Nc3nccs3)n2)c1	.	-1.9	-11.1	.	.
COc1ccc(C2CC(c3c(Cl)cccc3Cl)n3nc(N)nc3N2)cc1 (stereo unspecified)	.	1.6	-2.0	.	.
COc1ccc(/C(O)=C2/C(=O)C(=O)N(CC3CCCO3)C2c2cccc(O)c2)cc1 (stereo unspecified)	.	6.6	-3.2	.	.
COc1ccc(CNC(=O)C2CCN(C(=O)N3CCOc4ccc(C)cc43)CC2)cc1	.	-0.4	10.0	.	.
CCOC(=O)N1CCC(NC(=O)c2ccc(CNS(=O)(=O)c3ccc(F)cc3)cc2)CC1	.	-2.7	8.7	.	.
CCOC(=O)C1CCN(C(=O)C2(NC(=O)Nc3ccccc3Cl)CCCCC2)CC1	i	-0.9	-1.4	i	i
CCOC(=O)CC(=O)CSc1nc2c(c(C)c1C#N)CCC2	.	9.6	-1.2	.	.
O=C(O)c1cccc(NS(=O)(=O)c2cccc3cccnc23)c1	.	4.1	3.6	.	.
CC(C)(C)c1cc(C(=O)O)nn1-c1ccccc1	i	4.1	-3.5	i	i
Cc1n[nH]c(C)c1S(=O)(=O)N1CCCC(C(=O)Nc2ccc3c(c2)OCCO3)C1 (stereo unspecified)	.	-1.9	-3.0	.	.
CN(C)c1ccc(-c2nc3ccccc3n2C)cc1	.	1.1	-1.3	.	.
CCCCCn1c(SCC(=O)OCC)nc2cc(C(=O)NCc3ccco3)ccc2c1=O	.	-5.4	-1.8	.	.
Cc1cc(OCn2ccc(C(=O)O)n2)ccc1Cl	.	2.3	0.8	.	.
CCOc1ccc(N2CC(C(=O)Nc3ccccc3OC)CC2=O)cc1 (stereo unspecified)	i	2.8	3.2	i	i
Cc1ccc(S(=O)(=O)N2CCOCC2)cc1C(=O)Nc1nc(-c2cccnc2)cs1	i	14.7	-3.1	i	i
Cc1ncc([N+](=O)[O-])n1CC(O)CCl (stereo unspecified)	i	-4.6	-1.1	i	i
COc1cccc(CNC(=O)CN(c2cc(C)cc(C)c2)S(=O)(=O)c2c(C)noc2C)c1	.	5.3	2.0	.	.
CCOc1ccc2nc(C)cc(C(=O)O)c2c1	.	-3.6	7.6	.	.
COC(=O)CSc1nc2sc3c(c2c(=O)n1C1CCCCC1)CCN(C)C3	i	-2.2	-2.8	i	i
O=C(NCc1cccnc1)Nc1cccc(NC(=O)NCc2cccnc2)c1	.	7.3	-4.4	.	.
CCc1nn(C(C)C(=O)N2CCN(Cc3ccccc3)CC2)c(=O)c2cc3occc3n12 (stereo unspecified)	.	0.5	-3.1	.	.
Cc1ccc(-c2nc(N)n(C(=O)c3cccnc3)n2)cc1	i	0.3	-0.8	i	i
COc1ccc2c(c1)CCc1c(C(=O)Nc3c(C)n(C)n(-c4ccccc4)c3=O)noc1-2	.	-1.5	12.4	.	.
O=C(c1ccco1)N1CCN=C1SCc1cccnc1	.	-1.8	1.9	.	.
COc1ccc(CCNC(=O)Cn2cnc3c(cnn3C(C)(C)C)c2=O)cc1OC	.	2.5	-9.6	.	.
CCCOc1ccc(C2c3c(oc4cc(C)c(C)cc4c3=O)C(=O)N2CCCN(C)C)cc1 (stereo unspecified)	.	-2.0	-0.7	.	.
O=c1c2c(nc3nc(CCc4ccccc4)[nH]n13)CCC2	i	9.1	-4.2	i	i
CC(=O)NS(=O)(=O)c1ccc(NC(=O)c2ccccc2F)cc1	i	-4.7	2.5	i	i
c1nc(NCC2(N3CCOCC3)CCCCC2)c2ccsc2n1	i	-6.0	6.0	i	i
c1ccc(C2CC(c3cccs3)n3nnnc3N2)cc1 (stereo unspecified)	.	-4.9	-4.3	.	.
CC(C)CC(NS(=O)(=O)c1ccc2c(c1)oc(=O)n2C)C(=O)NC1CCCc2ccccc21 (stereo unspecified)	.	-2.8	9.1	.	.
COc1ccc2[nH]c(=O)c(CN(Cc3cccs3)Cc3nnnn3C(C)(C)C)cc2c1	i	-9.0	-4.4	i	i
Cc1ccc(-c2nc(CS(=O)CC(=O)NCCN3CCCC3)c(C)o2)cc1 (stereo unspecified)	.	-2.6	4.0	.	.
O=C(Nc1nnc(COc2ccc(F)cc2)s1)c1cccs1	i	-1.2	-5.0	i	i
COc1cccc2sc(NC(=O)c3ccc(S(=O)(=O)N4CCOCC4)cc3)nc12	i	-7.1	-6.7	i	i
CCc1nc(SCc2cc(Cl)ccc2OC)n[nH]1	i	6.2	-1.5	i	i
Cc1ccc(C2C(C(=O)c3cccs3)=C(O)C(=O)N2CCN2CCOCC2)o1 (stereo unspecified)	.	-6.6	-0.9	.	.
CCn1c(SCC(=O)NCc2ccco2)nc2c(c1=O)SC(C)C2 (stereo unspecified)	i	-1.0	2.2	i	i
CC(NCc1ccco1)C(=O)N1CCc2ccccc2C1 (stereo unspecified)	i	-7.7	-1.8	i	i
CCCCNC(=O)c1cc(-c2ccc(OC)cc2)on1	.	-0.4	-1.4	.	.
CCCN1C(=O)C2(/C(=C(\O)c3ccc4c(c3)OCCO4)C(=O)C(=O)N2CCCOC)c2ccccc21 (stereo unspecified)	.	14.3	-1.6	.	.
CCOC(=O)c1sc2ccc(S(=O)(=O)N3CCOCC3)cc2c1N	.	-6.0	-2.4	.	.
COc1ccc(C2C(C(=O)NCc3cccnc3)c3ccccc3C(=O)N2C)cc1OC (stereo unspecified)	.	-1.0	-4.0	.	.
O=C(O)c1cccc(NC(=O)c2cccc(S(=O)(=O)N3CCCCC3)c2)c1	.	0.8	-3.2	.	.
c1ccc(-c2n[nH]c3ccccc23)cc1	i	-1.2	-1.9	i	i
COc1cc2c(cc1OC)C(C(=O)O)C(c1ccc(C)o1)N(C)C2=O (stereo unspecified)	.	2.5	8.2	.	.
CCC(=O)N1c2ccc(S(=O)(=O)CCC(=O)N3CCN(c4ccccc4)CC3)cc2CC1C (stereo unspecified)	.	0.2	1.9	.	.
COc1cc(-c2nn3c(-c4cccnc4)nnc3s2)cc(OC)c1OC	i	-9.7	-13.1	i	i
O=C(NCCCc1ccccc1)C1CCN(c2nnc(-n3cccc3)s2)CC1	.	-5.3	6.8	.	.
